# Sa growth inh – blocks Staphylococcus aureus growth | S. aureus RN4220 growth, OD600, 20 h, 42 °C; active compounds read low | relative growth, % (concentration not given with the values) | 0.53% of 170,000 active | AID 720641;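 active means growth at 42 °C up to 50% and 20 or more points under that at 30 °C, or under 10% at both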;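 further: 300 nL library stock went into each well; scaled to the means of positive and negative controls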
# GIV Gai3 FP – blocks GIV peptide binding to rat Galpha-i3; P08753; 0.42% of 210,000 active; percent of control (FP), % (test concentration not listed); Galpha-i3/FITC-GIV peptide fluorescence polarization, 90 min; active compounds read low; scaled: aluminum fluoride 0%, vehicle 100%;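 active means replicate mean at 85% of control or lower, very high polarization wells dropped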;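 further: lower values mean more displacement of the GIV peptide from Galpha-i3; wells of about 15 µL received 100 nL stock; the first replicate is given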
# Target sequence (P08753 whole entry, looked up): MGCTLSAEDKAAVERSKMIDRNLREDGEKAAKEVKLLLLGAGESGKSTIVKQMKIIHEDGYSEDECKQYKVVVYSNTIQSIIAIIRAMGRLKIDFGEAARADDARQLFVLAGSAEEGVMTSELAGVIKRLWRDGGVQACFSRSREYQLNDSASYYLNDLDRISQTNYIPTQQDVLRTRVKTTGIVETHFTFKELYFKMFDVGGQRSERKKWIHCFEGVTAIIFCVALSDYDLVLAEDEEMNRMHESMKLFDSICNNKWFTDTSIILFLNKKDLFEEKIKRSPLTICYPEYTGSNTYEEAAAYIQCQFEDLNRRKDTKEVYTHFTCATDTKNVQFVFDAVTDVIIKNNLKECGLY
# HCMV UL50-53 inh – inhibitors of HCMV UL50-UL53 nuclear egress complex interaction; inhibition, % (no concentration beside the values); HTRF UL50-UL53 interaction, normalized percent inhibition; 0.15% of 190,000 active; AID 1918969;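 active means both replicates at 50% or more, plus weaker picks with an unusually low signal ratio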;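 further: stock transfer was 100 nL into about 20 µL; 0% = negative control wells and 100% = wells with untagged competitor protein; inactives centre near -12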
# Sa growth inh second temp – recorded beside Sa growth inh, whose call it bears; relative growth, %; measured here: growth at 30 °C;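 optical density after 20 h as mean of two plates; 100% = untreated growth and lower means inhibition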
# * hit, by the source's call; · = no result given; & = joins results of further samples. Not a hit list; overall some 0.85% were active at least once.
SMILES,Sa growth inh,Sa growth inh second temp,GIV Gai3 FP,HCMV UL50-53 inh
CCN1CCN(C(=O)CN(c2cccc(C(F)(F)F)c2)S(=O)(=O)c2ccc(C)cc2)CC1,101,92,98,-4
O=C(c1ccc2nc(N3C(=O)c4ccccc4C3=O)sc2c1)N1CCOCC1,101,90,97,-14
CC(C)Nc1nc(NC(C)C)nc(N(C)C)n1,81,76,103,-13
Cc1ccc(NCc2cc(=O)n3[nH]c(-c4ccc(C(C)(C)C)cc4)nc3n2)cc1Cl,·,·,107,-24
O=C(CCCOc1ccccc1)Nn1cnnc1,106,95,102,-10
CN1C(C(=O)NC(C)(C)C)=CC(c2cccs2)=NS1(=O)=O,101,85,102,-68
CC(C)c1ccc(CNCCSc2nnnn2C)cc1,103,93,109,4
CCc1nc2sc3c(N4CCCCC4)ncnc3c2c2c1CCCC2,111,101,104,29
CN(C)C(=O)COC(=O)c1cncc(Br)c1,87,97,·,-25
CC(=O)NC(CSCc1ccccc1)C(=O)O (stereo not given),93,89,·,-13
Nc1ncc(S(=O)(=O)NCc2ccc(F)cc2)cn1,94,85,104,·
COC(=O)CSc1nnc2sc3ccccc3n12,102,79,98,·
COCCNC(=S)N1CCN(S(C)(=O)=O)CC1,100,101,103,-5
Cc1ccc(NC(=O)c2cc(S(=O)(=O)NC3CCCCC3)ccc2F)cc1Cl,128,100,107,·
COc1cc(OC)cc(C(=O)Nc2cccc(-c3cn4cccnc4n3)c2)c1,109,96,105,·

# 6 entries already listed, arranged by length of the SMILES, largest number first:
SMILES,Sa growth inh,Sa growth inh second temp,GIV Gai3 FP,HCMV UL50-53 inh
Cc1ccc(NC(=O)c2cc(S(=O)(=O)NC3CCCCC3)ccc2F)cc1Cl,128,100,107,·
COc1cc(OC)cc(C(=O)Nc2cccc(-c3cn4cccnc4n3)c2)c1,109,96,105,·
CCc1nc2sc3c(N4CCCCC4)ncnc3c2c2c1CCCC2,111,101,104,29
Nc1ncc(S(=O)(=O)NCc2ccc(F)cc2)cn1,94,85,104,·
CC(C)Nc1nc(NC(C)C)nc(N(C)C)n1,81,76,103,-13
CC(=O)NC(CSCc1ccccc1)C(=O)O (stereo not given),93,89,·,-13

# Going on with the list.
SMILES,Sa growth inh,Sa growth inh second temp,GIV Gai3 FP,HCMV UL50-53 inh
CCCn1c2ccccc2c2cnn(CC(=O)N(CC)c3cc(C)ccc3C)c(=O)c21,93,96,109,·
CCC1CCc2nc3sc(C(=O)NC(C)c4ccccc4)c(N)c3cc2C1 (stereo not given),132,71,104,·
CC1CCN(c2nc3c([nH]2)c(=O)n(C)c(=O)n3C)CC1,117,102,103,12
O=C(NNc1ccc(Cl)cc1)C1CCC1,87,82,106,-23
Cc1c(NC(=O)c2cc3nc(-c4ccccc4)cc(C)n3n2)c(=O)n(-c2ccccc2)n1C,·,·,102,-56
CCOC(=O)c1cccc2c3c([nH]c12)C(C(=O)OCC)CCC3 (stereo not given),103,99,101,4
C=C(C)Cn1c(SCC(=O)Nc2ccccc2C)nc2sc3c(c2c1=O)CCCC3,96,102,103,3
CC(C(=O)N1CCN(Cc2ccccc2)CC1)n1sc2ccccc2c1=O (stereo not given),103,88,100,-10
CC(C)NC(=O)CCc1nc2cccnc2n1-c1ccccc1,86,87,101,·
Cc1nn(-c2ccc(-c3noc(C4CCC4)n3)cc2)cc1C(=O)Nc1ccc2c(c1)OCCO2,·,·,104,8
CSc1nc(NCCN(C)C)c(C#N)c(-c2ccccc2)n1,·,·,102,1
Cc1ccccc1CN1c2ccccc2-c2nc(SCC(=O)c3ccccc3)ncc2S1(=O)=O,102,89,103,·
CCOC(=O)C1C(=O)CN(c2ccccc2)C1=O (stereo not given),106,88,·,-16
O=C(c1cccs1)N1CCN(c2ncnc3sccc23)CC1,112,98,105,-12
O=C(/C=N/O)Nc1cccc(C(=O)O)c1,76,95,·,-4
CCOC(=O)c1[nH]c(C)c(CCC(=O)N2CCN(c3cccc(OC)c3)CC2)c1C,93,80,103&102,·
O=c1oc2c(o1)=C(c1ccccc1)S(=O)(=O)C=2c1ccccc1,97,87,97,3
O=C(ON1C(=O)c2cccc3cccc(c23)C1=O)c1cccnc1,63,56,103,-69
O=C(CC1C(=O)N(c2ccc(F)cc2)C(=O)N1Cc1ccc2c(c1)OCO2)Nc1ccc(Cl)cc1 (stereo not given),110,74,102,-14
CCN(CC)Cn1c(=O)sc2ccccc21,79,111,101,-16
CCc1ccc(C2=CC(c3ccc(Cl)cc3)n3ncc(C(=O)Nc4ccccc4)c3N2)cc1 (stereo not given),·,·,109,-8
O=C(O)c1ccc(N2CCN(CC(=O)N3CCOCC3)CC2)c(NC(=O)c2ccc(Cl)cc2)c1,·,·,97,-14
CCOc1ccc(C(=O)NCCCN2CCCC2=O)cc1,78,87,·,-30
CCCCCn1c(CCCNC(=O)c2ccccc2)nc2ccccc21,98,85,104,-8
CN(Cc1nc2ccccc2n1C)c1ccccc1,108,91,98,15
COc1ccccc1-c1nc2ccccc2s1,107,67,104,-8
C=Cc1ccc(COC(=O)c2nnn(-c3ccc(CC)cc3)c2C)cc1,·,·,102,-24
CNC(=O)c1c(C)csc1NC(=O)C(F)(F)F,80,24,94,-12
COc1ccc(C2N3CC4(C)CN2CC(c2ccccc2)(C3)C4=O)cc1OC (stereo not given),95,83,97,-33
CCn1c(=NC(=O)c2ccc3c(c2)OCCO3)sc2c(C)ccc(OC)c21,112,97,109,·

# The last 2 compounds of the part above open the next one.
SMILES,Sa growth inh,Sa growth inh second temp,GIV Gai3 FP,HCMV UL50-53 inh
COc1ccc(C2N3CC4(C)CN2CC(c2ccccc2)(C3)C4=O)cc1OC (stereo not given),95,83,97,-33
CCn1c(=NC(=O)c2ccc3c(c2)OCCO3)sc2c(C)ccc(OC)c21,112,97,109,·
Cn1c2ccccc2c2c(C(=O)N3CCN(c4ccc(F)cc4)CC3)cn(C3CCCCC3)c(=O)c21,119,93,110,7
CCCCCOc1ccc(OC(=O)c2ccncc2)cc1,104,99,110,8
C(=Nc1cccc(/N=C/c2ccco2)n1)c1ccco1,85,81,·,-8
O=C(COC(=O)CC1CCCC1)Nc1ccc(Br)cc1F,100,83,·,-29
COc1ccc(-c2noc(CN3CCCC(C(=O)Nc4ccc(F)c(Cl)c4)C3)n2)cc1OC (stereo not given),112,80,105,-7
CSc1scc2c1-c1nc(SCC(=O)c3ccc(Cl)cc3)ncc1CC2,102,84,100,-6
O=C(NCc1ccccc1)C1CC(c2ccc(Cl)cc2)=NO1 (stereo not given),102,92,106,-138
Cc1ccc(CNC(=O)c2cc3c(=O)n(C)c4ccccc4c3n2C)cc1,111,101,103,·
Cc1ccccc1NC(=O)C1CCN(c2nc3ccccc3[nH]2)CC1,·,·,103,-17
COC(=O)c1c(C)nn(-c2ccccc2)c1NC(=O)C(C)Oc1ccc(Cl)cc1 (stereo not given),81,75,104,·
O=C(NCCN1CCCC1)c1cc2n(n1)CCCN(Cc1cccc(F)c1)C2=O,·,·,102,-10
CCN(Cc1ccccc1)C(=O)Cn1c(=O)n(-c2ccc(Cl)cc2)c(=O)c2c(C)c(C)sc21,113,110,101,13
Cc1ccc(S(=O)(=O)NC2(C(F)(F)F)NC(=O)N(CCc3ccccc3)C2=O)cc1 (stereo not given),96,95,97,-16
Cc1ccc(C(=O)OCC2OC3OC(C)(C)OC3C2O)cc1 (stereo not given),105,86,·,-9
CCCn1c(N)nc2c1c(=O)n(C)c(=O)n2C,81,96,97,·
O=C(Nc1ccccc1)OC(CN1CCN(c2ccccc2)CC1)C(F)(F)F (stereo not given),·,·,99,-16
c1nc(N2CCOCC2)nc2c1CNCC2,102,95,107,-6
O=C(CCn1cccc1)NCCc1ccccc1,105,93,98,-17
Cc1c(C#N)c(NC(=O)CN2CCCC2c2cccs2)n(C2CCCCC2)c1C (stereo not given),77,87,·,-29
CC(C)(C)n1ncc2c(=O)n(NC(=O)Cc3ccccc3)cnc21,99,94,100,-1
COc1ccc(-c2nc3ccccc3nc2-c2ccccc2)cc1,·,·,106,-53
Fc1ccc(N=Cc2ccccc2F)cc1,113,89,106,·
O=S1(=O)c2ccccc2N(Cc2ccc(Cl)cc2F)c2ccccc21,98,93,100,·
O=C(CSc1nnc2c(n1)CCCC2)c1ccc(N2CCCC2=O)cc1,107,36,66*,26
O=C(CC1C(=O)N(c2ccccc2)C(=O)N1C1CCCCC1)Nc1ccccc1 (stereo not given),108,92,101,·
NC(=O)C(Cc1ccccc1)N1C(=O)C2C3C=CC(C3)C2C1=O (stereo not given),103,81,105,·
CC(C)Nc1nc(C#N)nc(NC(C)C)n1,111,82,104,19
Cc1ccc(Cl)cc1NC(=O)Cn1c(=O)n(CCC(=O)N2CCc3ccccc3C2)c(=O)c2ccccc21,104,107,98,19
Cc1cccc(NC(=O)CN2C(=O)CSC2=O)c1,101,97,103,-1
O=C(c1cccc(Nc2ccc(-c3ccccc3)nn2)c1)N1CCCC1,·,·,103,-33
COc1ccc(C2CCCCCN2C(=O)Cc2nn(C)c(=O)c3ccccc23)cc1 (stereo not given),90,102,·,5
COC(=O)c1sccc1-c1ccc(CN2CCC(c3ccccc3OC)CC2)o1,100,87,103,-30
CC(C)c1nn2c(=O)cc(COC(=O)c3cccs3)nc2s1,81,92,101,·
S=c1nc(C2CCCCC2)n(-c2ccccc2)[nH]1,88,83,·,2
Cc1cc(CSC(=N)N)cs1,96,100,100,·
CCc1ccc(C(=O)NCc2ccc3c(c2)OCO3)cc1,92,91,·,-9
Cc1cc(=O)[nH]c(SCC(=O)C2CC2)n1,95,101,102,10
CC[n+]1cccc(-c2nc3ccccc3s2)c1,90,99,102,·
Cc1ccc(C)c(N2CCN(C(=O)Cn3cnc4nc5c(cc4c3=O)CCCC5)CC2)c1,65,66,103,·
Cc1c(N=C2NC(=O)C(CC(=O)Nc3ccccc3)S2)c(=O)n(-c2ccccc2)n1C (stereo not given),100,73,107,-33
CCN1C(=O)/C(=C2/C(=O)N(Cc3ccc(Cl)cc3)c3ccccc32)SC1=S,100,80,·,-35
CN(c1ccccc1)S(=O)(=O)c1ccc(NC(=O)c2nc(S(C)(=O)=O)ncc2Cl)cc1,-1.2*,-1.1*,100,-14
CCc1nc(CN2CCN(c3cc(C(F)(F)F)ccn3)CC2)c(C)[nH]1,96,80,100,-20
O=C1c2c(c3ccccc3n2Cc2ccccc2)CCN1c1ccccc1,·,·,101,-19
CNC(=O)C1CCN(Cc2cc3ccccc3n2Cc2cccc(C)c2)CC1,112,77,102,·
CC(=O)c1ccc(S(=O)(=O)Nc2ccc(-c3ccc(N4CCCCC4)nn3)cc2)cc1,112,93,108,·
Cc1ccc(C(=O)Nc2ccc(C(=O)OCc3cc(=O)n4nc(C5CC5)sc4n3)cc2)cc1,91,85,104,·
O=C(NCCCN1CCN(c2ccccc2F)CC1)c1cc2c(Cl)nc3ccccc3c2s1,114,90,99,-30
CCOC(=O)c1ccc(S(=O)(=O)NC2CCCCCCC2)n1C,99,91,105,·
Cc1nc(-c2cc(S(=O)(=O)NC3CCCCC3)c(C)s2)no1,·,·,106,-40
c1ccc(CN2CN=C(Nc3nc4ccccc4s3)NC2)cc1,111,81,103,·
Cc1noc2ncnc(NCc3cccc(Cl)c3)c12,97,100,107&98,3
CCCn1c(CN2CCC(C)CC2)nc2cc(NC(C)=O)ccc21,·,·,103,-10
CCN(c1cc(C)cc(C)c1)S(=O)(=O)c1nnc(NC(=O)c2cccs2)s1,80,66,111,-20
O=C(COC(=O)c1ccccc1Cl)c1cc2ccccc2o1,92,96,·,-9
COc1ccc(C2=NN(C(C)=O)C(c3cc4ccccc4nc3Cl)C2)cc1OC (stereo not given),·,·,105,-18
OCCCCn1c(-c2ccccc2)cc2ccccc21,117,74,102,22
O=C(COc1ccccc1)Nc1c(C(=O)N2CCN(c3ccc(F)cc3)CC2)oc2ccccc12,89,89,107,·
O=C(O)COCC(=O)Nc1ccc(-n2ccc(C(F)(F)F)n2)cc1,97,91,94,-16
O=C(O)CCSCc1ccc(Cl)cc1,102,96,100,·

# (next part)
SMILES,Sa growth inh,Sa growth inh second temp,GIV Gai3 FP,HCMV UL50-53 inh
Cc1nnc2c3ccccc3nc(Nc3ccc4c(c3)OCO4)n12,120,80,101,-20
O=c1c2cccnc2[nH]n1-c1ccccc1,·,·,103,-10
Cn1c(=O)c(-c2noc(-c3ccccc3)n2)cn(-c2ccccc2)c1=O,108,91,107,-30
CCCn1c(=O)c2ccc(Cl)cc2n2c(=O)n(CC(=O)Nc3ccc4c(c3)OCCO4)nc12,·,·,103,-18
Cc1ccc(C)c(NC(=O)CN2CCCN(Cc3cccc(Cl)c3)S2(=O)=O)c1,94,69,105,·
CC(c1ccc(C(=O)O)o1)N1CCOCC1 (stereo not given),106,94,·,4
O=C(O)c1ccccc1C(=O)NCCN1CCNC1=O,110,99,106,23

# Pulled by structure from above, two records:
SMILES,Sa growth inh,Sa growth inh second temp,GIV Gai3 FP,HCMV UL50-53 inh
CCCn1c(=O)c2ccc(Cl)cc2n2c(=O)n(CC(=O)Nc3ccc4c(c3)OCCO4)nc12,·,·,103,-18
O=c1c2cccnc2[nH]n1-c1ccccc1,·,·,103,-10

# Screening data as filed in PubChem BioAssay.
